Bioassay records: PubChem BioAssay, National Center for Advancing Translational Sciences (NCATS)
Menin-MLL FL inh: qHTS Assay for Inhibitors Targeting the Menin-MLL Interaction in MLL Related Leukemias: Competition With Fluorescein Labeled MLL-derived Peptide; FP activity change, % at 61.4 µM; 290,000 tested, under 10 active; Fluorescence polarization, fluorescein-MLL peptide displacement from menin; inconclusive = falling polarisation curve, or a change in total fluorescence; inactive = total fluorescence flat and polarisation flat or rising; no compound was filed as active; the % refers to the polarisation; negative = inhibition;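 note: % of control where 0% means no effect; inhibitors lower the polarisation; unlabelled MLL peptide was the positive control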
TRPV1 PAM: HTS Assay for Compounds that Act as Potentiators of the Vanilloid Receptor 1; TRPV1-expressing cells, Fluo-8 calcium influx, capsaicin EC20 potentiation; host cell line not named in the record; control for the full effect not named in the record; potentiation, % at 8.33 µM; hit rate 0.02% among 320,000; active means potentiation above 80%; inconclusive means 30% to 80%; inactive means below 30%; note: 0% is about no effect
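TRPV1-expressing cells were cultured overnight at 35.5C and loaded with Fluo-8 calcium dye for 40 to 90 min at room temperature. After a 10 s baseline, compound was added and calcium influx was read kinetically for 3 min (ex 480/em 520 nm).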
TRPML1 ag: qHTS for Agonists of the Human Mucolipin Transient Receptor Potential 1 (TRPML1); AID 624414, 2012; activation, % (concentration not given with the values); TRPML1-expressing cells, Ca2+ dye fluorescence, FDSS; host cell line not named in the record; reference of the full effect not given here; Mucolipin-1 (Homo sapiens), Q9GZU1; hit rate 0.12% among 410,000; in the data active = activation above about 50%; inconclusive = about 30% to 50%; inactive = below about 30%; note: 0% is about no effect; the text of the record puts the active cut at 80%
Target sequence (Q9GZU1 whole entry, looked up): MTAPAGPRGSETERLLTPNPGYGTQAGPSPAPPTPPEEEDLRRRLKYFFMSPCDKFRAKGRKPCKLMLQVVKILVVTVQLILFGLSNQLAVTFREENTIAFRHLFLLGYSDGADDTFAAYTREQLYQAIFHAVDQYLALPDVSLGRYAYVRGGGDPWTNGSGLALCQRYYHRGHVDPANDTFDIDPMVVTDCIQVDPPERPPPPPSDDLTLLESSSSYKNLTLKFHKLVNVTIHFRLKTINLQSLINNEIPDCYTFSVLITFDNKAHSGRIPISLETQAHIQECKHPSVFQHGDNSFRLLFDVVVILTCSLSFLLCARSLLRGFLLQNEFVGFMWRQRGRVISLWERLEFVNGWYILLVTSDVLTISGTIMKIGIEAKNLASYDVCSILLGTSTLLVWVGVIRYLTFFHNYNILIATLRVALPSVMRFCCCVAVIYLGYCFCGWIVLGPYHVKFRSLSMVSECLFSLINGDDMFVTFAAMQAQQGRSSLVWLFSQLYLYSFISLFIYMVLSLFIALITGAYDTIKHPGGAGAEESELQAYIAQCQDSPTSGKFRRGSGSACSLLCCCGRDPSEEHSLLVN
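Tetracycline-induced TRPML1-DL cells are seeded and incubated overnight before loading with a no-wash Ca2+ dye and quencher. Agonist activity is taken from the 110 s fluorescence read following compound pin-transfer on an FDSS, before EC80 54-4 challenge.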
TRPML1 inh: qHTS for Inhibitors of the Human Mucolipin Transient Receptor Potential 1 (TRPML1) | Mucolipin-1 (Homo sapiens), Q9GZU1 | TRPML1-inducible cells, Ca2+ dye fluorescence, FDSS; active compounds read low; inhibition of EC80 agonist-evoked calcium signal | activity change, negative = inhibition, % (concentration not given with the values) | hit rate 0.02% among 390,000 | AID 624415, 2012; in the data active means activity change below about -50%; inconclusive means about -30% to -50%; inactive means above about -30%;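 note: stimulus is agonist 54-4 at its EC80 concentration; % is set by controls: 0 for no effect and ±100 for the full control effect; the text of the record puts the active cut at -80%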
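Calcium fluorescence in TRPML1-DL cells induced overnight with Tet: a 110 s read after compound pin addition, then a 110 s antagonist read after challenge with 54-4 at 4 uM final (EC80).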
PINK1 expr mod: A Quantitative High throughput Screen to Identify Chemical Modulators of PINK1 Expression; AID 624263, 2012; PINK1 immunofluorescence, high-content cytometry, 24 h; hit rate 0.2% among 410,000; Potency, µM (series often up to 76.6 µM), for the others: at the highest dose activation (PINK1 increase), hits mostly activators; active = well fitted activation curve with a large enough effect; inconclusive = small, poorly fitted or top-dose-only effect; inactive = flat fitted curve, though single readings scatter; cell line not stated here;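 note: potency is the fitted concentration of half-maximal effect; % of control where 0% means no effect; nearly all actives have a fitted effect of over 65% in size; a mitochondrial uncoupler was the plate control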
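Readout is PINK1 immunofluorescence, quantified alongside mitochondrial, cell and nuclear markers by laser-scanning microplate cytometry. Cells from a stable line were exposed to compound titrations (5 concentrations) for 24 hours, with CCCP controls.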
ClpP mod: qHTS Assay for Activators of ClpP. ATP-dependent Clp protease proteolytic subunit (Bacillus subtilis (strain 168)), P80244. purified B. subtilis ClpP, FRET peptide cleavage, 20 min. Potency, µM (titrated, usually from 57.5 µM), inactives show at the top dose activity change, negative = active. hit rate 1.9% among 340,000; active = well fitted falling curve with a large enough effect; inconclusive = small, poorly fitted or top-dose-only effect; inactive = no such curve, though single readings can be large or run the other way; note: potency is the fitted concentration of half-maximal effect; the source files actives as falling curves though it sought activators and does not explain the sign; nearly all actives have a fitted effect of over 65% in size; many hits overshoot -100%
Target sequence (P80244 whole entry, looked up): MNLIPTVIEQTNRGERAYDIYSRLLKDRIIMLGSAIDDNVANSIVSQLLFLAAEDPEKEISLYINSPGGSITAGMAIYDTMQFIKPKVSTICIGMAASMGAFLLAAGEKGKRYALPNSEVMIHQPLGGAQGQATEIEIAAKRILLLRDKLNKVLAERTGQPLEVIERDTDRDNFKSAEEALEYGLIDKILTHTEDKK
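Purified B. subtilis ClpP, 10 microg/mL final in Tris/HCl pH8 with KCl, BSA, glycerol and Tween-20, cleaved an Abz/nitrotyrosine-quenched decapeptide. Fluorescence (ex 320, em 430) was read at 0 and 20 min at room temperature. Delta was normalized to 5.8 microM ADEP and DMSO/no-enzyme controls.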
Sfp inh: qHTS Assay for Inhibitors of Bacillus subtilis Sfp phosphopantetheinyl transferase (PPTase); Biochemical Sfp PPTase activity, qHTS; 4'-phosphopantetheinyl transferase ffp (Bacillus subtilis), Q9F4F7; Potency, µM, without a hit: max response, negative = inhibition, hits mostly inhibitors; AID 1490, 2009; hit rate 3.5% among 310,000; active = well fitted inhibition curve with a large enough effect; inconclusive = small, poorly fitted or top-dose-only effect, or another doubt; inactive = no such curve, though single readings can be large or run the other way;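 note: the enzyme is Sfp with the accession as filed and its product quenches rhodamine fluorescence; potency is the fitted concentration of half-maximal effect; 0% = enzyme reaction without inhibitor and -100% = no enzyme wells; top concentration of the series not given in the record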
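Step 1, compound plus 15 nM Sfp-PPTase, 15 min, room temperature. Step 2, add rhodamine-CoA (5 uM) and BHQ-2-YbbR (12.5 uM). Step 3, read 525/598 nm fluorescence at 0 and 30 min.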
The depositor's hits bear a star; ? = inconclusive; . = not tested or not shown; & = joins results of further samples; [ ] = remark or other dose.

SMILES	Menin-MLL FL inh	TRPV1 PAM	TRPML1 ag	TRPML1 inh	PINK1 expr mod	ClpP mod	Sfp inh
CCOc1ccccc1NC(=O)c1cccc(NC2=NC3CS(=O)(=O)CC3S2)c1 (configuration not stated)	-0.2	13	0.9	4	0.9%	-4.7%	13%
CN1CC(=O)Nc2ccc(Br)cc2C1=O	14	-1	-0.1	4	0.8%	-3.2%	18%
Cc1cc(C)cc(NC(=S)NCCCO)c1	8.7	5	-0.8	-11	-1.6%	-2.7%	-1%
CCOC(=O)c1cccc(NC(=O)c2cccnc2)c1	1.9	-34	1.8	-14	18%[38.3 µM]	-2.3%	-1%
O=c1[nH]c2ccccc2n2c(-c3ccccc3)nnc12	0.9	-7	0.2&-0.2	0	-0.9%&1.4%	?	1.3µM*
Cc1cccc(C)c1-n1ncc(C(=O)NCc2ccc3c(c2)OCO3)c1C1CCN(C(=O)OC(C)(C)C)CC1	.	.	1.1	-19	-1.8%	0.8%	.
COc1ccc(S(=O)(=O)N2CCCCCC2)cc1C(=O)N(C)CC(=O)Nc1ccccc1C(F)(F)F	.	6	-0.2	-20	0.9%	-0.2%	.
Cc1cccc(-c2nc(SCC(=O)Nc3cc(C)on3)c3c(=O)n(C)c(=O)n(C)c3n2)c1	.	.	1.3	16	1.4%	-0.9%	.
Cc1cc(CNC(=O)CC2C(=O)NCCN2Cc2ccccc2C(F)(F)F)on1 (configuration not stated)	-24	7	0.5	9	-1.0%	.	6%
O=C(Nc1cccc(S(=O)(=O)N2CCCCCC2)c1)c1ccc2c(c1)OCO2	1.4	6	2.3	16	-0.2%	-2.0%	25%
Cc1noc(C)c1CSCC(=O)Oc1ccc(N(C)S(=O)(=O)c2ccc(Cl)cc2)cc1	.	-23	1.0	1	6.1%	.	.
Cc1ccc(NNC(=O)c2c(F)cccc2Cl)cc1Cl	0.7	.	1.1	-17	0.4%	.	1%
CC(=O)c1cccc(NC(=O)c2ccccc2N(Cc2ccccc2)S(C)(=O)=O)c1	-1.2	-6	-0.2	-1	1.3%	-2.3%	-1%
CCN(CC)CCNC(=O)c1ccc(CS(=O)(=O)c2ccccc2C)o1	-2.6	5	0.0	-3	-0.2%	0.2%	10%
Cc1c(NC(=O)C(C)N2CC(C)OC(C)C2)c(=O)n(-c2ccccc2)n1C (configuration not stated)	1.5	-30	0.0	-11	-1.4%	1.8%	6%
CC1=CC(=NOC(=O)/C=C/c2ccccc2)C=C(C)C1=O	2.9	-10	-0.6	-18	?	-1.6%	-19%
C=CCn1c(=NC(=O)c2ccc(S(=O)(=O)N3CCc4ccccc4C3)cc2)sc2cc(S(N)(=O)=O)ccc21	3.4	-7	-0.2	-6	0.0%	-2.1%	8%
Fc1cccc(-c2cc3nc(-c4ccccc4)cc(N4CCC5(CC4)OCCO5)n3n2)c1	-0.5	4	0.5	56	18%	?	1%
Cc1cccc(-c2noc(CN(C)C(=O)COc3ccccc3)n2)c1	-7.8	-11	2.2	9	0.1%	2.6%	-6%
O=C(NCCN1CCOCC1)c1ccc(CS(=O)c2ccccc2Cl)o1 (configuration not stated)	.	13	-0.2	14	-1.3%	1.7%	13%
Cc1ccc(C2=NN(Cc3nnc(-c4ccccc4)o3)C(=O)SC2)cc1	4.0	2	1.2	33	-1.8%	1.1%	-19%
O=C(NC(=S)N1CCN(Cc2ccccc2)CC1)c1ccccc1	0.6	-22	-0.7	-4	0.5%	-1.2%	-23%
CCOc1ccccc1NC(=O)CSc1nc2c(oc3ccccc32)c(=O)n1-c1ccc(F)cc1	.	.	0.0	2	-0.1%	-8.2%	.
COc1ccccc1NC(=O)C(=N\O)/C(C)=N/O	-1.6	-5	1.2	2	1.4%	-3.3%	7%
COCCCC1CCN(C(=O)C2CCC(=O)N(CCc3ccccc3)C2)CC1 (configuration not stated)	-0.9	2	0.9	-1	-1.5%	-2.5%	6%
Cc1ccc(C(=O)NC2CC(C)(C)NC(C)(C)C2)cc1S(=O)(=O)N1CCCCC1	.	1	-0.4	-3	-0.9%	.	.
Cc1cccc(C2=NN(c3ccccc3)[C@H](CO)[C@H]2c2ccc(F)cc2)c1	15[94.6 µM]	.	0.6	14	-1.2%	4.7%	18%
COC(=O)[C@H](CCSC)NC(=O)Cn1ccc(NC(=O)OCc2ccccc2)nc1=O	.	-3	0.0	-9	1.9%	0.0%	.
CSCCC(NC(=O)c1ccccc1Cl)C(=O)Nc1ccncc1 (configuration not stated)	.	9	-0.4	5	1.7%	0.4%	.
CN(C)c1ccc(C(=O)N=c2sccn2C)cc1[N+](=O)[O-]	.	-5	-0.6	3	1.5%	3.2%	14%
Cc1ccc(/C=N/NC(=O)c2cccc(S(=O)(=O)Nc3ccccc3Cl)c2)o1	0.6	25	-0.1	-6	3.0%	-0.9%	18%
C/[N+]([O-])=C1\Cc2ccccc2C1=O	1.6	3	0.5	?	-0.9%	2.4%	1%
Cc1ccc(Cl)cc1NC(=O)CCn1c(=O)c2cccn2c2cccnc21	.	.	-1.0	13	-0.2%	-11%	.
COc1ccccc1NS(=O)(=O)NC(=O)c1c(C)[nH]c2ccccc12	.	-2	5.4	3	-2.1%	-6.2%	21%
COc1ccc(Nc2nc3cc(C)ccc3cc2C#N)c(OC)c1	-4.1	2	0.9	3	19%	-0.7%	9%
COc1ccc(C=NNc2ccc([N+](=O)[O-])cc2S(=O)(=O)Nc2ccccc2C(=O)O)cc1OC	.	.	1.8	23	-0.5%	-0.5%	.
CC(C)Cc1nnc(NC(=O)c2ccc(S(=O)(=O)N3CCCC3)cc2)s1	.	-7	1.1	0	-1.5%	.	.
COc1ccc(OC)c(CCNC(=O)c2c3c(nc4ccccc24)C(=O)N(C2CCCCC2)C3)c1	.	.	0.0	-5	0.3%	-5.5%	.
COc1ccc(SC[C@H](Cc2ccccc2)N2CC[C@@H](C(C)(C)C)CCC2=O)cc1	.	3	0.5&0.5	-5	16%	1.0%&3.0%	.
Cc1cccn2c(=O)c(C=O)c(N3CCSCC3)nc12	5.4	-1	0.8	-16	0.5%	-2.3%	16%
Cc1ccc(CNC(=O)C(=O)NCC(c2ccco2)S(=O)(=O)c2ccc(C)cc2)cc1 (configuration not stated)	.	.	1.5	11	0.9%	2.1%	.
COc1cccc(NC(=O)CN2C(=O)CSc3nc(C)cc(C)c32)c1	-3.0	2	0.3	9	0.3%	1.2%	9%
Cc1ccc(N2CC(C(=O)Nc3ccccc3C(=O)NC3CCCCC3)CC2=O)cc1 (configuration not stated)	4.5	8	-0.4	-4	-0.7%[38.3 µM]	-11%	12%
O=C(c1ccco1)N1CCN(C(c2ccc(Cl)cc2)c2nnnn2CC2CCCO2)CC1 (configuration not stated)	-2.1	-4	1.0	31	-3.1%	-0.7%	56µM*
NC(=O)c1ccccc1NS(=O)(=O)c1ccc(S(=O)(=O)N2CCCC2)cc1	.	-10	-0.7	6	3.1%	-3.4%	.
NS(=O)(=O)c1ccc(N2N=C(c3ccccc3)CC2c2ccccc2Cl)cc1 (configuration not stated)	.	.	1.2	38	-1.5%	4.6%	.
CN(C)CCN1CCN(C2CN(Cc3ccc(F)cc3)S(=O)(=O)C2)CC1 (configuration not stated)	.	.	0.2	.	0.6%	-4.2%	.
COc1ccccc1-c1nnc(SC)n1C	-1.9	-3	1.9	-3	-0.1%	-0.6%	9%
O=C1c2cccc3cccc(c23)C(=O)N1CC1CCN(S(=O)(=O)c2ccc(F)cc2)CC1	0.9	-4	-0.2	16	-2.4%	13µM*	11%
CC1CCCCC12NC(=O)N(CC(=O)Nc1ccc3[nH]c(=O)[nH]c3c1)C2=O (configuration not stated)	.	1	0.1	11	1.6%	-2.3%	.
CN(C)S(=O)(=O)c1ccc(Cl)c(NC(=O)COC(=O)/C=C/c2ccc(S(=O)(=O)N3CCOCC3)cc2)c1	.	-24	12	-11	1.0%	-3.4%	7%
O=C(OCC(=O)N1CCN(Cc2ccccc2)CC1)c1cc(Cl)ccc1[N+](=O)[O-]	.	-15	3.0	7	1.7%	-0.7%	.
COc1ccc(C2NC(=O)NC(C)=C2C(=O)Nc2cc(C)cc(C)c2)c(OC)c1 (configuration not stated)	.	.	-0.3	-3	0.0%	-1.9%	.
Cc1ccc(SCc2nc3ccccc3n2CC(=O)Nc2ccc(Cl)cc2)cc1	3.9	5	0.8	-3	?	-5.8%	?
O=C(Cc1ccccc1)N1CCN(c2ccc([N+](=O)[O-])cc2)CC1	-26	-19	.	.	2.3%	0.8%	13%
CCOc1ncccc1C(=O)OCc1nnc(-c2ccccc2)o1	1.4	8	0.7	-1	0.2%	0.3%	14%
Cc1cc(Cn2nc(-c3ccccc3)cc2C(=O)NCC2CC2)on1	.	9	-0.8	15	-0.9%	-3.4%	.
COc1ccc(C(=O)Nc2ccc(Nc3ccccc3)cc2)cc1Br	.	.	2.9	29	3.3%	.	.
CCn1c(C)nc2cc(C(=O)NNS(=O)(=O)c3cc(Br)ccc3Br)ccc21	1.6	0	.	.	3.7%	0.6%	5%
Cc1ccc(NC(=O)COC(=O)C2=NN(c3ccccc3)C(=O)CC2)c(Br)c1	.	-9	-0.3	-25	-0.2%	-1.3%	.
COCCNc1c([N+](=O)[O-])c(=O)n(-c2ccccc2)c2ccccc12	-0.2	3	1.8	-9	-1.2%	1.7%	-1%

2 consecutive records from above, for reference:
SMILES	Menin-MLL FL inh	TRPV1 PAM	TRPML1 ag	TRPML1 inh	PINK1 expr mod	ClpP mod	Sfp inh
CN(C)S(=O)(=O)c1ccc(Cl)c(NC(=O)COC(=O)/C=C/c2ccc(S(=O)(=O)N3CCOCC3)cc2)c1	.	-24	12	-11	1.0%	-3.4%	7%
O=C(OCC(=O)N1CCN(Cc2ccccc2)CC1)c1cc(Cl)ccc1[N+](=O)[O-]	.	-15	3.0	7	1.7%	-0.7%	.

No enrichment for hits; any-hit rate near 4.4%.
